Screening data: PubChem BioAssay, several laboratories
HNF4A DNA FP: change in binding of human HNF4 alpha to DNA; 360,000 tested, 0.3% active; HNF4a-FITC DNA binding, fluorescence polarization, 1 h; AID 1224865; activity change, % at 10 µM; in the data active means activity change above about 30%, passing the limit was not always enough;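 further: controls were the assay level and a saturating level of protein; the project sought stronger binding though the title names inhibitors; some compounds called inactive have numbers as strong as hits; positive values seem to mean higher polarization but the record does not say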
Target sequence (P41235 whole entry, looked up): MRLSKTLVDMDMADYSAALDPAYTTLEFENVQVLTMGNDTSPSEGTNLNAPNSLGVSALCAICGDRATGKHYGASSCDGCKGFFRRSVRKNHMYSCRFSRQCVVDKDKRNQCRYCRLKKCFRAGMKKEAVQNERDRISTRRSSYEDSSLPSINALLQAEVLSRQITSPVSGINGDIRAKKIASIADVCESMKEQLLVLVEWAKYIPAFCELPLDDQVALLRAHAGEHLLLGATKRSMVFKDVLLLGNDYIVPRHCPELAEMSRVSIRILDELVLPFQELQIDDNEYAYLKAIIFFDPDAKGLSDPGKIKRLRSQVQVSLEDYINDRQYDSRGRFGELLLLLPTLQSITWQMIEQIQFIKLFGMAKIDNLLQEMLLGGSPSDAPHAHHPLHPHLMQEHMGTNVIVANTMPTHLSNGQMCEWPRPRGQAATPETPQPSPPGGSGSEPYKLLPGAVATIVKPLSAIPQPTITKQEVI
Vif TR-FRET: HIV-1 Vif–A3G interaction blockers – biochemical, TR-FRET, GST-Vif 1-94, biotin-A3G peptide, dose response retest, primary screen (AID 1117319) | 260,000 tested, 0.57% active | inhibition, %; hits with a dose series show IC50 in µM | TR-FRET GST-Vif / biotin-A3G peptide binding; higher % means a stronger effect; test concentration not given here; strong numbers were not always called active;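 active means above the screen mean plus three standard deviations and confirmed in dose response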;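 further: Vif residues 1-94 fused to GST binding biotinylated APOBEC3G peptide 110-148; 0% = full assay without inhibitor and 100% = GST in place of GST-Vif; retest series ran down from 100 µM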
Ecoli growth: blocks Escherichia coli growth | OD600, 23 h; active compounds read low | 330,000 tested, 0.21% active | OD600 absorbance (no concentration beside the values);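 active means OD600 absorbance below the run mean of sample wells minus 3.6 SD, in any replicate, cut at about 0.56 in these data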;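 further: stock transfer was 300 nL into about 60 µL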
ALR inh: human ALR oxidase inhibition via reduced H2O2; purified ALR, DTT oxidation, H2O2 HRP-luminol luminescence; 290,000 tested, 3.8% active; inhibition, % (test concentration not listed); P55789;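 active means mean and each replicate at 75% or more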;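 further: stock transfer was 7.5 nL into about 7.5 µL; 0% = neutral wells and 100% = wells with inactivated enzyme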
AF4-AF9 inh: blocks AF4 peptide binding to human AF9. P42568. inhibition, % at 10 µM. 350,000 tested, 0.47% active. AlphaScreen, biotin-AF4 peptide binding to FLAG-AF9;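 active means every replicate reaching a set inhibition limit, whatever the replicate mean, cut at about 25% in these data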;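 further: 0% = plate neutral control median and 100% = total signal loss; the record names both 10 and 1 µM as test concentration; the first replicate is given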
Target sequence (P42568 whole entry, looked up): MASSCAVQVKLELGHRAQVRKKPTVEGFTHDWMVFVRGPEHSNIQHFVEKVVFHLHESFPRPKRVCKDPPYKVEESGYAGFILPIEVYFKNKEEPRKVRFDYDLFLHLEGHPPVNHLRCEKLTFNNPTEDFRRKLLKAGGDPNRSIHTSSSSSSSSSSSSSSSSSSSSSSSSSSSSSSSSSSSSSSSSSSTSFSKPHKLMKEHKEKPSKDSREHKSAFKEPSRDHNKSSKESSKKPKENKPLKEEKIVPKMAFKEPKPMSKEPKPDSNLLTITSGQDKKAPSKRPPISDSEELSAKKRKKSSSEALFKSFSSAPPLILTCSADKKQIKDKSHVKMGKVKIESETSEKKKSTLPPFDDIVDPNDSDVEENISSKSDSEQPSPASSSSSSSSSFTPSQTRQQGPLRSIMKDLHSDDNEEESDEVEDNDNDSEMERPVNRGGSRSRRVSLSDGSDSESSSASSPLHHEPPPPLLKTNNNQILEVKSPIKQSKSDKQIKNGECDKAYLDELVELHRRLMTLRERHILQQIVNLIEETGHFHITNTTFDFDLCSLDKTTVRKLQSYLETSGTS
Ecoli rRNA inh: selective bacterial rRNA inhibition in E. coli; E. coli WT GFP vs humanized-ribosome RFP mutants, fluorescence, 24 h; active compounds read low; DMSO median 0, no signal -100; GFP signal change (wild-type ribosome), % (concentration not given with the values); 350,000 tested, 1.6% active; AID 720706;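 active means significant combined selectivity score with lowered wild-type GFP, culture density cut under 30%, mutant RFP and density less affected; inactive means any of these conditions unmet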; further: one replicate is shown; some compounds called inactive have numbers as strong as hits
FGF22 binding: shifts melting point of recombinant human FGF22; Q9HCT0; recombinant FGF22 thermal shift, SYPRO orange fluorescence; percent of sucrose octasulfate shift, DMSO zero; calls only at 9.99 µM; 340,000 tested, 1.5% active;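 active means melting point raised past a set limit in the mean and every replicate; three in four hits are not shown here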
Ecoli rRNA inh OD600: also measured in Ecoli rRNA inh; calls as there; OD600 change, %; measured here: OD600 growth;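 optical density of the mix in the first replicate; 0 = DMSO median and -100 = no signal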
Ecoli rRNA inh RFP: also measured in Ecoli rRNA inh; calls as there; RFP signal change, %; measured here: RFP humanized mutant strains;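 first replicate; 0 = DMSO median and -100 = no signal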
* hit, by the source's call; i = inactive; · = no result given. These rows are one share of the data; the hit share may differ from the screen's.

SMILES | HNF4A DNA FP | Vif TR-FRET | Ecoli growth | ALR inh | AF4-AF9 inh | Ecoli rRNA inh | Ecoli rRNA inh OD600 | Ecoli rRNA inh RFP | FGF22 binding
O=C(COC(=O)c1ccc2c(c1)OCCO2)Nc1cccc(S(=O)(=O)N2CCOCC2)c1 | 4.0 | 5% | 0.63 | 1 | -3.4 | -6 | -12 | -0.4 | i
CCCC1NC(=O)c2cccnc2-n2c1nc1ccc(Cl)cc1c2=O (configuration not stated) | 2.7 | -1% | · | · | -2.3 | 1 | 6 | -1.6 | i
Cc1cccc(C)c1NC(=O)Nc1ccccc1-n1ccnc1 | -2.7 | 7% | 0.7 | -7 | -0.6 | 1 | 6 | 0.8 | i
NC(=O)c1ccc(=O)n(Cc2ccc(F)c(F)c2)c1 | 3.0 | 3% | 0.7 | 1 | -2.1 | 8 | 1 | -0.4 | i
O=S(=O)(NC1CC1)c1ccc(S(=O)(=O)N2CCCc3ccccc32)cc1 | 0.4 | 2% | 0.67 | 1 | -10 | -28 | -28 | -8.8 | i
CCOP(=O)(O)c1ccccc1OCCCCCOc1ccccc1P(=O)(O)OCC | 0.4 | -3% | 0.7 | 1 | -2.7 | 5 | -2 | -4.6 | i
CCOC(=O)c1ccc(N(C(=O)c2ccco2)C(C(=O)NC2CCCC2)c2ccncc2)cc1 (configuration not stated) | -0.6 | · | 0.67 | 6 | 2.9 | 3 | 1 | -3.6 | i
CCOc1ccc(C=NC23CN4CN(CN(C4)C2)C3)cc1 | -1.9 | -2% | 0.62 | -23 | · | · | · | · | ·
CCOC(=O)C1(CC2CCCCO2)CCN(Cc2cccnc2)CC1 (configuration not stated) | -6.8 | -2% | 0.66 | -2 | 1.2 | 15 | 10 | -0.2 | i
c1ccc2nc3c(ccc4ccccc43)cc2c1 | 1.9 | 1% | 0.66 | · | 15 | -32 | -44 | -6.6 | i
O=C(Cc1ccc(Cl)cc1)Nc1ccc(S(=O)(=O)N2CCOCC2)cc1 | 1.3 | · | 0.65 | -10 | 3.6 | -5 | -9 | -0.9 | i
Cc1ccc([C@H]2C[C@H](O)[C@@H](n3cc(C4CC4)nn3)CN2C(=O)C2CCCCC2)cc1 | -5.9 | · | · | · | -2.6 | -2 | -6 | -0.6 | i
COC(=O)[C@]12C[C@H](CC(=O)NCCCN3CCCC3=O)C(=O)N(Cc3ccc4c(c3)OCO4)C1=C[C@H](COCc1ccccc1)O[C@@H]2C | · | · | · | · | -6.4 | 3 | -1 | 9.1 | i
COc1cc([N+](=O)[O-])c(OC)cc1SCc1n[nH]c(=S)n1-c1ccc(C)cc1 | -2.2 | 2% | 0.63 | · | 2.4 | -17 | -10 | 2.1 | i
Cc1ccc2nc3c(cc(C(=O)NCc4ccco4)c(=N)n3C3CCCC3)c(=O)n2c1 | -3.4 | · | · | -3 | -5.0 | 17 | 9 | 1.9 | i
Cc1ccc(OCC(=O)Nc2nnc(S(=O)(=O)N3CCCCCC3)s2)cc1 | 2.0 | · | 0.72 | · | 4.0 | -2 | -13 | -2.4 | i
CO[C@H]1CN(C)C(=O)c2cc(NS(=O)(=O)c3ccccc3)ccc2OC[C@H](C)N(C(=O)NC(C)C)C[C@@H]1C | · | · | · | · | -13 | 0 | -1 | -0.3 | i
O=C(c1ccc(N2CCCC2)c([N+](=O)[O-])c1)N1CCN(S(=O)(=O)c2ccc(Cl)cc2)CC1 | -1.9 | 11% | 0.65 | 0 | -7.0 | -4 | 0 | 1.7 | i
O=C(CNC(=O)c1ccc(S(=O)(=O)N2CCCC2)cc1)N/N=C/c1ccccc1 | -2.4 | 6% | · | 0 | · | · | · | · | ·
CN(C)CC(=O)N1c2ccccc2Sc2ccc(Cl)cc21 | -1.7 | 3% | 0.67 | -11 | -0.2 | 8 | 1 | 0.3 | i
O=C1N[C@@H](c2ccccc2)COC(=O)[C@H](Cc2ccc(F)cc2)C/C=C\C[C@H]1CC(=O)N(CCO)Cc1ccccc1 | 0.2 | · | · | · | -6.7 | -8 | -13 | 3.6 | i
C[C@@H]1CN([C@H](C)CO)C(=O)c2cc(NC(=O)NC3CCCCC3)ccc2O[C@@H]1CN(C)C(=O)Nc1ccc(C(F)(F)F)cc1 | · | · | · | · | 0.2 | -2 | -2 | -0.7 | i
CCOc1ccccc1N(CC(=O)Nc1ccccc1C(=O)N1CCOCC1)S(C)(=O)=O | 1.1 | · | 0.68 | -11 | -4.4 | 6 | 1 | 1.2 | i
O=C(O)CCC(=O)NNC(=O)c1cccc(Br)c1 | 1.9 | · | 0.64 | 1 | · | · | · | · | ·
COCC1CCCCN1C(=O)c1ccc2oc(CCc3ccccc3)nc2c1 (configuration not stated) | 0.7 | 25% | 0.67 | -1 | -0.8 | -12 | -10 | -1.3 | i

3 of the entries above in order of their number in Ecoli rRNA inh OD600, smallest number first:
SMILES | HNF4A DNA FP | Vif TR-FRET | Ecoli growth | ALR inh | AF4-AF9 inh | Ecoli rRNA inh | Ecoli rRNA inh OD600 | Ecoli rRNA inh RFP | FGF22 binding
O=C1N[C@@H](c2ccccc2)COC(=O)[C@H](Cc2ccc(F)cc2)C/C=C\C[C@H]1CC(=O)N(CCO)Cc1ccccc1 | 0.2 | · | · | · | -6.7 | -8 | -13 | 3.6 | i
O=C(c1ccc(N2CCCC2)c([N+](=O)[O-])c1)N1CCN(S(=O)(=O)c2ccc(Cl)cc2)CC1 | -1.9 | 11% | 0.65 | 0 | -7.0 | -4 | 0 | 1.7 | i
CCCC1NC(=O)c2cccnc2-n2c1nc1ccc(Cl)cc1c2=O (configuration not stated) | 2.7 | -1% | · | · | -2.3 | 1 | 6 | -1.6 | i

Additional results follow.
SMILES | HNF4A DNA FP | Vif TR-FRET | Ecoli growth | ALR inh | AF4-AF9 inh | Ecoli rRNA inh | Ecoli rRNA inh OD600 | Ecoli rRNA inh RFP | FGF22 binding
CC(C)NC(=O)N1[C@@H](CO)[C@H](c2ccccc2)C12CN(C(=O)c1ccccn1)C2 | · | · | · | · | -2.3 | 0 | -2 | 2.1 | i
COC(=O)[C@H](C)NC(=O)Nc1cc(Cl)ccc1C | 3.9 | 18% | 0.68 | -1 | 3.2 | 14 | -1 | -8.9 | i
COc1ccc(S(=O)(=O)N(C)C[C@H]2OCCCC[C@H](C)Oc3ccc(NS(=O)(=O)c4c(C)noc4C)cc3C(=O)N([C@H](C)CO)C[C@H]2C)cc1 | · | · | · | · | -2.1 | 0 | -1 | -0.7 | i
O=C(OCc1nc2ccsc2c(=O)[nH]1)c1cc(Br)c(Br)s1 | 1.3 | -8% | 0.65 | 4 | 0.5 | 2 | 3 | -0.7 | i
Cc1cc(Nc2nnnn2-c2ccccc2)n(-c2ccccc2)n1 | -3.4 | -1% | 0.69 | 45 | · | · | · | · | ·
N#Cc1c(NC(=O)C2C3C=CC(C3)C2C(=O)O)sc2c1CCCCC2 (configuration not stated) | -1.0 | -1% | 0.67 | 7 | -1.1 | -19 | -33 | -4.9 | i
C[C@@H]1CN([C@@H](C)CO)C(=O)c2cc(NC(=O)Cc3cn(C)c4ccccc34)ccc2O[C@H]1CN(C)C(=O)NC1CCCCC1 | · | · | · | · | 1.2 | -2 | 1 | 1.4 | i
CC[N+](C)(CC)CCC(c1ccccc1)C1CCCCC1 (configuration not stated) | -2.8 | · | 0.68 | -11 | 0.0 | -22 | -18 | 0.3 | i
CCC(C)[C@H](NC(=O)N1CC(=O)Nc2ccccc21)C(=O)N[C@@H](Cc1c[nH]c2ccccc12)C(=O)O (some centres not stated) | 7.0 | · | 0.75 | -6 | -12 | 2 | 4 | 13 | i
CO[C@@H]1CN(C)C(=O)c2ccc(NC(=O)C3CC3)cc2OC[C@H](C)N(CC2CCOCC2)C[C@@H]1C | · | · | · | · | -1.4 | 2 | -1 | -3.4 | i
Cc1csc(=O)n1CCC(=O)O | 3.4 | 4% | 0.67 | · | · | · | · | · | ·
COc1ccccc1/C(C)=N/NC(=S)NCc1ccccc1 | 0.5 | 3% | · | 1 | 5.0 | -12 | -16 | -4.8 | i
C[C@@H]1CCCCO[C@@H](CN(C)Cc2ccc(Cl)c(Cl)c2)[C@H](C)CN([C@@H](C)CO)C(=O)c2cc(NC(=O)c3ccccc3)ccc2O1 | · | · | · | · | 0.0 | 1 | 1 | 0.6 | i
COc1ccc(NC(=O)Nc2ccc3c(c2)CC(=O)N([C@H](C)CO)C[C@@H](C)[C@@H](CN(C)S(C)(=O)=O)O3)cc1 | · | · | · | · | -8.2 | 6 | 10 | 2.3 | i
Clc1cccc(Cl)c1-c1nnc2cccc(Cl)n12 | -0.2 | -5% | 0.67 | -3 | · | · | · | · | ·
Cc1ccc(C)c(OCCCCn2cnc3ccccc3c2=O)c1 | 14 | 8% | 0.7 | -9 | -24 | -38 | -43 | -21 | i
CCCCc1nnc(NC(=O)C(=O)OCC)s1 | -6.4 | 1% | 0.71 | · | -0.1 | 8 | -4 | -15 | i
CCC(=O)N(C)C[C@H]1Oc2ncc(-c3ccccc3C)cc2C(=O)N([C@H](C)CO)C[C@H]1C | · | · | · | · | -5.2 | 2 | 5 | -1.0 | i
COc1ccc(/C=N/Nc2nc(N3CCCC3)nc(N3CCCC3)n2)c(OC)c1OC | -0.7 | -9% | · | -7 | · | · | · | · | ·
COc1ccc(-c2c(C)oc3c(CN4CCCCC4C)c(O)ccc3c2=O)cc1 (configuration not stated) | 4.4 | 1% | 0.72 | 0 | 0.3 | 7 | 5 | -4.3 | i
COc1ccc(-n2cc(CNC(C)c3ccncn3)c(-c3cccc(F)c3)n2)cc1 (configuration not stated) | 1.6 | 5% | 0.65 | -4 | -2.1 | -7 | 3 | 1.5 | i
COCCn1c(SCC(=O)N2CCCC(C)C2)nnc1-c1ccco1 (configuration not stated) | -0.5 | · | 0.71 | · | -0.6 | 2 | -1 | 2.8 | i
N#Cc1c2n(c3c(=O)n(Cc4ccc(Cl)cc4)cnc13)CCCCC2 | -1.5 | 7% | 0.71 | · | · | · | · | · | ·
COCCNC(=O)C[C@@H]1C[C@H]2c3cc(N(C)C)ccc3O[C@H]2[C@H](CO)O1 | · | · | · | · | -8.1 | 3 | 8 | 0.5 | i
COc1ccc(CNC(=O)c2cc(=O)c3ccc(C)c(C)c3o2)cc1 | 4.4 | 6% | 0.69 | -35 | 0.2 | 5 | 11 | -8.4 | i
Going on with the list.
SMILES | HNF4A DNA FP | Vif TR-FRET | Ecoli growth | ALR inh | AF4-AF9 inh | Ecoli rRNA inh | Ecoli rRNA inh OD600 | Ecoli rRNA inh RFP | FGF22 binding
CC(=O)N1CCc2cc(S(=O)(=O)NCCC(=O)NCCc3ccc(C)cc3)ccc21 | 2.1 | 21% | 0.7 | · | · | · | · | · | ·
O=C(COC(=O)c1cc(Br)ccc1O)Nc1ccc2c(c1)OCCO2 | -0.2 | 5% | 0.6 | · | 5.8 | 5 | 16 | -3.1 | i
O=C(NC1CCCCC1)C(c1ccccc1)N(C(=O)c1cccs1)c1ccc2c(c1)OCO2 (configuration not stated) | -0.7 | -5% | 0.7 | 47 | 3.5 | 8 | 3 | -0.9 | i
Cc1cc(S(=O)(=O)N2CCOCC2)ccc1OCC(=O)Nc1ccccc1C(F)(F)F | 2.0 | · | 0.7 | · | -0.7 | · | · | · | i
C/C(=N\NC(=O)c1ccccc1N)c1ccc(NC(=O)Cc2ccccc2)cc1 | 6.5 | · | · | -14 | -0.9 | 11 | 4 | -4.5 | i
O=c1[nH]c2cc3c(cc2cc1CN(Cc1cccnc1)C(=S)NCc1ccco1)OCCO3 | -5.8 | · | 0.72 | -9 | 4.4 | -11 | -9 | -3.3 | i
